PrP UTR inh – inhibition of PrP 5' UTR reporter expression. AID 488862. actives 0.35% (n = 340,000). inhibition, % (no concentration beside the values). cell-based PrP 5' UTR mRNA reporter, plate reader;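 active = every replicate at 50% or more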;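 note: 0 = median of the neutral control wells; tested in H4 reporter cells; numbers are from one replicate; inactives centre near -14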
Mtb hypoxia rep – inhibitors of hypoxia-regulated fluorescent reporter in Mycobacterium tuberculosis. M. tuberculosis hypoxia-regulated fluorescent reporter, fluorescence. fluorescence inhibition, % (test concentration not listed). actives 0.1% (n = 300,000). AID 1159583;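 active = 35 to 45% if threefold the growth effect, above 45% if 1.5-fold the growth effect; inactive = the rest, general growth blockers included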;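 note: wells of about 50 µL received 100 nL stock; 0% = vehicle wells and 100% = reference inhibitor wells; whole bacteria with a GFP reporter of the hypoxia response; strong numbers were not always called active; many hits fall short of the cut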
ugtP null kill – compounds lethal to S. aureus RN4220 ugtP deletion mutant; OD600 growth, 16 h; some inactives read as strong as hits; growth inhibition, % (test concentration not listed); actives 0.54% (n = 330,000);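 active = z-score under -3 and OD600 up to 0.15 on both plates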;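 note: plate controls were untreated wells for no effect and antibiotic for full effect; wells of about 80 µL received 100 nL stock; the first replicate is given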
Autofluor counter – counter-screen for toxin protease inhibitors: compound fluorescence. compound autofluorescence counterscreen, microsphere flow cytometry; stronger effect = higher value. actives 3.1% (n = 360,000). AID 624483. fluorescence intensity (concentration not given with the values);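 active = at least 3 SD above the mean of all compounds, about 16000 in these data; inconclusive = too few beads counted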;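 note: 100 nL of 1 mM stock went into each well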
BJeLR lethal – BJeLR cell viability loss; inhibition, % (test concentration not listed); actives 0.17% (n = 300,000); BJeLR (HRASV12) viability, CellTiter-Glo ATP luminescence, 48 h; reference of the scale not given here;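 active = replicate mean above 50%; inconclusive = above 50% but judged a plate artefact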;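 note: 50 nL library stock added to about 25 µL; numbers are from one replicate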
RN4220 kill – S. aureus RN4220 growth inhibition; OD600, 16 h; inhibition, % (concentration not given with the values); actives 0.33% (n = 330,000); AID 1259311;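 active = z-score of -3 or lower and OD600 up to 0.18 on both plates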;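 note: plate controls were untreated cells for no effect and reference antibiotic for full effect; stock transfer was 100 nL into about 80 µL; one replicate is shown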
Mtb hypoxia rep growth – further read-out of Mtb hypoxia rep, marked with its call; growth inhibition, %; measured here: M. tuberculosis growth (absorbance);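 0% = vehicle and 100% = reference antibiotic; read after six days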
Numbers without * were called inactive; ? = inconclusive; . = not tested or not shown; & = joins results of further samples.

smiles	RN4220 kill	Autofluor counter	Mtb hypoxia rep growth	ugtP null kill	Mtb hypoxia rep	PrP UTR inh	BJeLR lethal
CC(=O)Nc1ccc(S(=O)(=O)N(C)CC(=O)N(C)Cc2sccc2C)cc1	4.6	4018	4	7	-8	-18	.
CCN(CC)c1ccc(C=NNC(=O)c2ccc3nc[nH]c3c2)c(O)c1	3.8	.	-21	7	0	.	.
CCOC(=O)C(C)Oc1cccc2c(=O)n(CC(=O)NCc3ccc4c(c3)OCO4)ccc12 (stereo unspecified)	-15	4731	11	-8	3	0	1
O=S(=O)(c1ccc2c(c1)CCN2)N1CCCC1	1.2	2983	-5	1	-2	1	.
CC1(C)NC(=O)N(CC(O)CN2CCOCC2)C1=O (stereo unspecified)	-1.4	?	-7	-2	-7	-11	-2
Cn1c(=O)oc2ccccc2c1=O	1.5	3551	11	0	9	-7	.
O=C(COC(=O)c1ccccc1Cc1ccccc1)Nc1ccc(SC(F)F)cc1	-13	9127	8	-1	1	-90	4
CN(Cc1ccccc1)C(=O)c1nc[nH]c1C(=O)N1CCN(C(=O)OC(C)(C)C)CC1	6.9	4180	10	-1	7	-15	.
O=C(NC1CCCC1)C1CCN(C(=O)c2ccc(Cl)cc2Cl)CC1	4.2	3778	3	9	14	-19	12
CCCCn1c(N)c(N(CC(C)C)C(=O)CSCC(=O)Nc2ccc(C)cc2)c(=O)[nH]c1=O	0.0	6636	0	4	0	-9	.
CCOC(=O)C1CCN(C(=O)c2ccc3c(c2)NC(=O)/C(=C/c2ccccc2)S3)CC1	5.4	3670	-1	-2	2	-11	4
O=C(NC(Cc1ccccc1)C(=O)O)/C(=C/c1ccc([N+](=O)[O-])cc1)NC(=O)c1ccco1 (stereo unspecified)	1.9	3831	-2	-1	2	-19	5
O=C(Nc1ccc(C(=O)NCC2CCN(Cc3ccccc3F)CC2)cc1)C1=CSCCO1	-1.4	5809	-6	-5	-3	-15	-1
CC1Sc2ccc(S(=O)(=O)N3CCN(c4cccc(Cl)c4)CC3)cc2NC1=O (stereo unspecified)	-13	6037	-3	-6	-11	-18	9
COCC(=O)Nc1c(I)c(C(=O)NCC(O)CO)c(I)c(C(=O)N(C)CC(O)CO)c1I (stereo unspecified)	5.6	5089	8	-2	-1	-30	.
Cc1ccc(N2CC(C(=O)Nc3nnc(SCC(=O)NCC4CCCO4)s3)CC2=O)cc1C (stereo unspecified)	0.5	4626	14	5	10	-21	2
Cc1cccc(N2CCN(C(=O)COc3ccc4ccc(=O)oc4c3)CC2)c1C	3.3	5266	-2	-4	-1	-25	2
CCOC(=O)c1cc2n(c1N=CN(C)C)-c1ccccc1C2=O	3.4	.	2	7	13	.	.
COCCCNCCOc1ccc(C)cc1[N+](=O)[O-]	.	2204	.	.	.	4	6
OCC1CCCN(C(=S)Nc2ccc(Nc3ccccc3)cc2)C1 (stereo unspecified)	4.3	3521	11	-3	10	-57	-4
O=C(N/N=C/c1ccc(OC(F)F)cc1)c1ccc(Br)cc1	.	11262	.	.	.	-34	-7
Cc1ccc(C)c(NC(=O)Cn2nnc(C(=O)Nc3c(C)cccc3C)c2N)c1	-5.1	.	.	0	.	-9	10
COc1ccc(CCC(=O)OCC(=O)Nc2sccc2C(N)=O)cc1OC	3.1	3983	4	-6	3	-6	.
c1ccn2cc(CSc3nnc4ccccn34)nc2c1	6.4	10641	10	3	6	-70	-4
Nc1nonc1-n1nnc(C(=O)N/N=C/c2cccc(Cl)c2)c1-c1cccs1	.	5142	.	.	.	-19	-1
c1ccc(N(c2ccccc2)c2nc(-n3ccnc3)nc(-n3ccnc3)n2)cc1	0.9	2985	.	1	.	5	3
COc1ccc(C2c3c(-c4cc(Cl)c(C)cc4O)n[nH]c3C(=O)N2Cc2cccnc2)cc1OC (stereo unspecified)	2.2	11007	-6	3	-8	-15	4
COc1cc(OC)cc(C(=O)NCC(=O)OCC(=O)N2CCc3ccccc32)c1	-4.3	4640	3	-7	-6	-8	-15
CCOC(=O)C1=C(N)OC2=C(C(=O)CC(C)(C)C2)C1c1ccccc1OC (stereo unspecified)	11	2053	2	11	19	-29	-6
CCc1ccc(/C=C2\SC(=S)N(CCCC(=O)Nc3ccccn3)C2=O)cc1	6.5	3541	12	-17	-7	57*	-9
CN(C)S(=O)(=O)c1cccc(NC(=O)COC(=O)c2ccc(Br)o2)c1	3.6	4387	.	3	.	-18	1
O=C(CN1CCOc2ccccc21)NC1CCCCCCC1	-0.1	6109	.	2	.	-32	-1
O=C(NC1CCN(S(=O)(=O)c2ccc(F)cc2)CC1)c1ccc(F)cc1	5.9	4740	3	14	-3	-1	6
COc1ccc(OC)c(/C=N/NC(=O)c2csc3ccccc23)c1	.	2882	.	.	.	-23	-3
CC(C)(C)c1ccc(OCC(=O)NCc2ccco2)c(Br)c1	-0.8	4210	6	22	8	-12	0
O=C1C=C(c2ccc(Cl)cc2)C(=O)N1Nc1ccccc1	2.5	2373	.	0	.	-24	9

Three structures already listed, ordered by molar mass, highest first.
smiles	RN4220 kill	Autofluor counter	Mtb hypoxia rep growth	ugtP null kill	Mtb hypoxia rep	PrP UTR inh	BJeLR lethal
CN(C)S(=O)(=O)c1cccc(NC(=O)COC(=O)c2ccc(Br)o2)c1	3.6	4387	.	3	.	-18	1
COc1cc(OC)cc(C(=O)NCC(=O)OCC(=O)N2CCc3ccccc32)c1	-4.3	4640	3	-7	-6	-8	-15
c1ccc(N(c2ccccc2)c2nc(-n3ccnc3)nc(-n3ccnc3)n2)cc1	0.9	2985	.	1	.	5	3

The results go on:
smiles	RN4220 kill	Autofluor counter	Mtb hypoxia rep growth	ugtP null kill	Mtb hypoxia rep	PrP UTR inh	BJeLR lethal
COc1ccc(CN=C2NN=C(c3ccc(Cl)cc3)CS2)cc1	4.7	4233	0	16	12	-27	6
CCOC(=O)COc1ccccc1C=NO	4.2	.	9	2	-2	.	.
COC(=O)Nc1ccc(C)cc1NC(=O)OC	-0.1	4227	3	3	4	-24	-2
CNc1ccc(Br)cc(C(=O)/C=C/c2cccc(OC)c2)c1=O	4.5	17911*	9	-6	10	-23	-2
CC12CC[C@H]3[C@@H](CCC4(O)C[C@H](O)CCC34/C=N/NC(=O)Cc3ccccc3)C1(O)CCC2C1=CC(=O)OC1 (stereo partly specified)	.	3604	.	.	.	-24&-12	7
Nc1nonc1-n1nnc(C(=O)NN=Cc2ccc(Cl)cc2Cl)c1CN1CCCC1	2.5	.	-4	-3	6	.	.
O=C(N/N=C/c1cn(-c2ccccc2)nc1-c1cccnc1)c1ccc(F)cc1	.	3372	.	.	.	-18	-5
Cn1cccc1C(=O)NCc1ccccn1	7.7	?	-6	13	-5	-14	.
CC(NC(=O)Cc1ccc(NC2=NC3CS(=O)(=O)CC3S2)cc1)c1ccccc1 (stereo unspecified)	6.9	5016	3	7	3	-6	-3
COc1ccc(CN(CC(=O)NC2CCCC2)C(=O)CCC(=O)Nc2nccs2)cc1	5.3	4101	4	5	-17	-23	6
CC(C1CC2CCC1C2)n1c(COc2ccccc2F)nnc1SCC(N)=O (stereo unspecified)	5.3	2692	.	-5	.	-20	4
CCC(C(=O)NCc1ccc(OC)cc1)n1nc(C)n2c(cc3occc32)c1=O (stereo unspecified)	2.3	4011	11	-5	15	-16	4
Cn1cnc2c(N3CCCCC3)nccc21	-7.1	2688	.	-5	.	-7	1
COC(=O)c1cc(S(=O)(=O)N2CCCC2=O)c(Cl)cc1Cl	1.0	3218	0	2	7	-12	5
O=Cc1sc(N2CCOCC2)nc1-c1ccccc1	1.5	.	17	1	12	.	5
COc1ccc(N(CC(=O)NCC2CCCO2)S(=O)(=O)c2ccc(C)cc2)cc1OC (stereo unspecified)	0.9	16225*	2	4	5	-11	-1
COc1ccc(NS(=O)(=O)c2cccc(NC(=O)C34CCC(CC3)C4)c2)cc1	-0.4	2496	0	-7	5	-10	-3
c1ccc(-n2c(-c3ccco3)nnc2N2CCOCC2)cc1	3.5	6160	-1	5	-1	-12	2
CC(=O)c1c(-c2ccc(C)cc2)nc2c3ccccc3ccn12	7.0	4218	15	12	4	-19	5
CC(C)=CC(=O)N1CCC(N2CCC(C(=O)N3CCOCC3)CC2)CC1	2.6	4533	11	8	12	-20	-7
CC(=O)N1c2ccccc2-c2nc3ccccc3n2C1C (stereo unspecified)	2.5	3686	6	8	8	-23	2
O=C1CN(C(=O)CSc2nnnn2C2CC2)c2ccccc2N1	2.0	5709	-2	5	-2	-12	.
Fc1ccc(/C=N/Nc2nn[nH]n2)cc1	.	4395	.	.	.	-29	0
CSc1ncc(C(=O)Nc2cccc(S(N)(=O)=O)c2)n1-c1ccccc1	1.5	3164	0	7	14	-20	-1
Cc1[nH]c(C)c(S(=O)(=O)N(Cc2ccccc2)C(C)(C)C)c1C(=O)N1CCCC1	3.6	6195	3	-3	8	1	0
O=S(=O)(NN=C1CCCCCC1)c1ccccc1	3.7	5234	1	0	0	-4	3
O=S1(=O)CCOC(CO)CN1Cc1ccc(Cl)c(Cl)c1 (stereo unspecified)	2.0	3617	3	-1	-3	-1	.
COCCN(CC(=O)Nc1cccc(C)c1C)C(=O)C1CCN(S(=O)(=O)c2ccccc2)CC1	4.3	4925	8	4	6	0	.
COc1ccc(CCNCc2ccncc2)cc1	6.2	2388	-2	-3	5	-14	3
Cc1nn(CC(=O)NCCCN2CC(C)CC(C)C2)c(=O)c2cccn12 (stereo unspecified)	0.7	4971	6	3	4	-10	0
CCOC(=O)c1c(N)sc(C(=O)Nc2ccc3c(c2)OCO3)c1C	-6.8	3331	.	-1	.	-6	0
CC1Cc2ccccc2N1C(=O)CO/N=C/c1ccccc1OC(F)F (stereo unspecified)	.	2380	.	.	.	-20	3
C=C/C(C)=C/CC1C(=C)CCC2C(C)(C(=O)O)CCCC12C (stereo unspecified)	11	4792	.	15	.	-19	-16
CC(=O)NC(c1ccc([N+](=O)[O-])cc1)c1c(O)ccc2ccccc12 (stereo unspecified)	0.1	2554	-5	-2	-5	-16	1
C/C(NC(=O)c1cccc(F)c1)=C1/C(=O)C[C@@H]2[C@H]1C2(C)C	.	3117	.	.	.	-29	-5
O=C(CN1CCCC1)Nc1ccccc1C(=O)c1ccccc1	0.4	5467	1	-1	6	-10	-1
CC1CC(C)CN(C(=O)COc2ccc(-c3nnco3)cc2)C1 (stereo unspecified)	5.0	10137	7	0	10	-2	-2
O=C(Cc1ccccc1)NC(Cc1ccc(O)cc1)C(=O)O (stereo unspecified)	-0.5	.	-4	-1	-3	.	.
CCN(CC)CC(=O)N1c2ccccc2Sc2ccccc21	3.0	3458	8	8	-3	-1	-1
O=C(NNS(=O)(=O)c1ccc2ccccc2c1)NC1CCCCC1	-1.7	1996	10	-1	5	-17	-1
Cc1ccc(N(CCC#N)C(=O)COC(=O)C2CCN(S(=O)(=O)c3ccc4c(c3)OCCO4)CC2)cc1	-1.4	7452	-20	4	0	-34	-14
Cc1c(C(=O)Nc2ccc(S(=O)(=O)Nc3ncccn3)cc2)oc2ccccc12	-0.1	7555	15	-3	14	-38	.
COc1ccc(C2=NS(=O)(=O)N(C)C(C(=O)Nc3ccc(C(C)=O)cc3)=C2)cc1OC	2.7	5442	1	3	-1	-9	7
O=C(CCCN1C(=O)c2ccccc2C1=O)Nc1ccc2c(c1)OCCO2	3.7	2531	7	6	11	-22	5
CCOC(=O)C1(Cc2cccc(OC)c2)CCN(Cc2ccc(C)s2)CC1	1.6	1912	-1	10	14	-5	6
Clc1ccc(C[n+]2csc3ccccc32)cc1	87*	2210	4	100*	3	-25	.
CSc1ccc(N2CCN(CCCNC(=O)Nc3ccccc3F)CC2)cc1	2.7	24815*	15	9	7	-10	11
CC1(C)Cc2c(C#N)c(NCc3ccco3)nc(-c3ccco3)c2CO1	-10	2161	6	4	10	-2	-2
CCOc1ccccc1N1CCN(C(=O)c2cc3cc(OC)ccc3[nH]2)CC1	6.9	3161	-13	-9	-12	-21	1
